Insulin prom inh = TRM-6 insulin promoter activity inhibition | inhibition, % at 2 µM | 130,000 compounds, 0.9% hits | TRM-6 cells (human fetal islet line), insulin promoter-eGFP reporter, imaging; reporter expression induced with tamoxifen;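 active means inhibition above the mean plus 3 SD, with well images judged a real hit on visual review, cut at about 60% in these data, passing the limit was not always enough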
RGS16-Gao HTS = regulators of human RGS16-Galphao interaction. bead-based flow cytometry RGS16-Galphao binding, fluorescence; actives lie on both sides. binding response (% of control), % at 10 µM. 220,000 compounds, 0.38% hits. O15492+P09471. AID 1441;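 active means below 25% or above 175%, edge rows of some plates excepted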;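 further: Galphao activated by GDP with aluminum fluoride before binding; 100% = wells without compound and 0% = beads without RGS; some results beyond the cut were filed as inactive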
PKD1 inh = inhibitors of human PKD1 kinase; Q15139; PKD1 kinase fluorescence polarization assay; inhibition, %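 (about 10 µM by stock and volumes)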; 200,000 compounds, 0.056% hits; AID 797;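 active means inhibition of 50% or more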;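 further: controls were vehicle for no effect and a reference inhibitor for full effect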
Target sequence (Q15139 whole entry, looked up): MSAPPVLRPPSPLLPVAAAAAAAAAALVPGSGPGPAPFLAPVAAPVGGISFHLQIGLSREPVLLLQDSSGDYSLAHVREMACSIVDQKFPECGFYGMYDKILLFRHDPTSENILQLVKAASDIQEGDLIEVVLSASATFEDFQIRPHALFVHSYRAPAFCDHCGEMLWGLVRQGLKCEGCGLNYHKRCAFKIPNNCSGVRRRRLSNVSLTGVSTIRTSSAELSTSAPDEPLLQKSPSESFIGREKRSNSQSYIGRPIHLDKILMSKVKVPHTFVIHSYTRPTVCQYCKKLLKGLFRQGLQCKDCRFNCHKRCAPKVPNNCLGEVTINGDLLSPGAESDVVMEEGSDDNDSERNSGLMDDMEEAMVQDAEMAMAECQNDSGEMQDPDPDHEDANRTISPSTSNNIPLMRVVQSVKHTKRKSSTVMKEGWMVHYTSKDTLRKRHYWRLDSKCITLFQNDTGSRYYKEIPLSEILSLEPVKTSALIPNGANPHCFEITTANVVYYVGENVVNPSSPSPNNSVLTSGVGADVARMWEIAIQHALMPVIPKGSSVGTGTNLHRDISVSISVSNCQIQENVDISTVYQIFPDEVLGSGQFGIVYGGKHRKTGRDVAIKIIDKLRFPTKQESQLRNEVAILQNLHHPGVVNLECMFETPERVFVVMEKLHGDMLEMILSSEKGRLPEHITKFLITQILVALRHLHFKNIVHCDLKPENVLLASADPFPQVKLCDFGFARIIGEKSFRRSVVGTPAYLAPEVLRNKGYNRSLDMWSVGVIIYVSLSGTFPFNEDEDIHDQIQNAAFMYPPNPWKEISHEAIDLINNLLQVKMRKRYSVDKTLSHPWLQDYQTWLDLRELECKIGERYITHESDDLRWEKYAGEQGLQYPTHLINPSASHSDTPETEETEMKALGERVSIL
GALR2 ag = GALR2 (human) receptor agonism. O43603. GALR2-expressing cells, agonist activation read-out. activation, %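 (tested at 5 µM)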. 140,000 compounds, 0.48% hits. AID 803;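 active means above mean plus 3 SD of all compounds, about 5% in these data, not always enough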;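 further: 0% = vehicle buffer wells and 100% = reference agonist at full effect; tested in CHO reporter cells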
HSV replic up = HSV replication enhancement; HSV replication augmentation in cells, fold increase; maximum fold increase; 220,000 compounds, 0.005% hits; AID 1956;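 active means peak rise of 1.5-fold or more in the series; tested in PC3 cells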;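 further: first round at 10 µM; read as green reporter fluorescence; hits show the peak of a series up to 25 µM; 1 = signal of infected wells without compound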
Insulin prom inh cell count = also measured in Insulin prom inh; calls as there; normalized cell count, %; measured here: cell count, toxicity; reference of the scale not given here;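 cells exposed to compound for 48 h; stained nuclei by imaging scaled within each plate; lower means fewer cells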
HSV replic up primary fold = also measured in HSV replic up; calls as there; fold increase; compound at 10 µM; measured here: primary screen fold increase 10 uM; tested in PC3 cells;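 GFP signal in the first replicate; 1 = infected wells without compound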
An asterisk follows results filed as active; i = inactive; x = not tested or not shown. Compounds as they come; about 1.3% have a hit in one of these screens.

SMILES	Insulin prom inh	Insulin prom inh cell count	RGS16-Gao HTS	PKD1 inh	GALR2 ag	HSV replic up	HSV replic up primary fold
CCC(=O)OCC(=O)Nc1cc([N+](=O)[O-])ccc1OC	11.8	115.9	104.3	0.6	x	i	1
O=C(NC(=S)Nc1ccc(S(=O)(=O)N2CCCCC2)cc1)c1ccccc1	2.9	114.0	98.0	8.1	-2.9	i	0.91
Cc1cccc2c(C(=O)Nc3ccc(Br)cc3)cc(-c3ccccn3)nc12	x	x	103.6	4.2	x	i	0.89
CCOC(=O)c1cccc(-c2ccc(C=O)o2)c1	x	x	101.7	13.4	0.6	i	1.19
O=C(Cn1nnc2ccccc21)Nc1ccc(Cl)cn1	x	x	102.4	-2.8	x	i	0.81
CC(C)(C)Nc1nc(Oc2ccc(=O)n(-c3ccccc3)n2)nc(N2CCOCC2)n1	-71.4	130.4	x	-3.0	-1.2	i	0.93
NC(=O)C1CCN(CC(=O)NC2CCCc3ccccc32)CC1 (stereo unspecified)	3.7	128.0	101.7	-5.2	x	i	1.07
CCOc1ccccc1NC(=S)N(CCOC)C1CCN(C(C)=O)CC1	x	x	100.5	x	x	i	0.96
CCP(=O)(c1cccc([N+](=O)[O-])c1)c1cccc([N+](=O)[O-])c1	x	x	95.8	x	x	i	1.12
CC(C)c1ccc(NC(=S)NC2CCN(Cc3ccccc3)CC2)cc1	-3.2	98.4	102.9	-2.8	-0.9	i	0.75
C/C(Nc1ccc(Cl)cc1)=C(/C#N)C(N)=O	-12.9	97.6	103.7	12.5	0.7	i	0.88
COc1ccc(N=C2O/C(=C/c3sc(=S)n(CC4CCCO4)c3O)N=C2C#N)cc1 (stereo unspecified)	x	x	88.6	x	x	i	1.15
NS(=O)(=O)c1cccc(NC(=O)COC(=O)COc2ccc3ccccc3c2)c1	20.0	137.1	98.8	1.2	x	i	0.94
S=C(N/N=C/c1ccccc1Cl)Nc1ccccc1	42.9	139.1	104.2	-10.4	-2.5	i	0.7
CC(C)CNc1nnnc2c1sc1nc(N3CCOCC3)c3c(c12)CCCC3	x	x	99.0	x	x	i	0.84
CCn1cc(C(C)NC(=O)Nc2ccccc2C(=O)OC)c(C)n1 (stereo unspecified)	x	x	99.8	-0.1	x	i	1.01
Cc1ccc2c(c1)-c1c(ssc1=S)C(C)(C)N2C(=O)CSC1=NCCS1	0.0	104.0	98.0	5.3	-2.9	i	0.97
CC(C)CNC(=O)CN(C1CCCCC1)S(=O)(=O)c1ccccc1	x	x	95.0	-11.2	-0.5	i	0.95
COc1ccc(CCC2(C)NC(=O)NC2=O)cc1 (stereo unspecified)	32.3	124.5	99.7	4.4	-0.8	i	0.95
CCCNc1cc(C)oc(=O)c1C(=O)CCC	40.6	97.7	106.5	-2.8	-0.2	i	1.01
c1ccc(C2=NN(c3ccccc3)C(c3ccco3)C2)cc1 (stereo unspecified)	35.7	118.8	108.1	-5.6	x	i	1.12
COc1ccc(NC(=O)c2cc3nc(-c4ccccc4)cc(C)n3n2)cc1OC	-25.0	115.7	96.9	4.0	x	i	0.73
Cc1ccc(C(=O)N/N=C\c2ccc(Br)o2)o1	x	x	101.9	2.5	-1.3	i	1.15
Cc1coc2cc3oc(=O)c4c(c3cc12)CCCC4	55.6	155.7	103.2	3.9	0.8	i	1.06
CC(C)(C)c1ccc(CN2C(=O)CSC2=O)cc1	x	x	103.9	-2.0	x	i	0.85
O=C(COC(=O)c1ccc(S(=O)(=O)NCc2ccco2)cc1)NC1CCCCCC1	23.9	53.9	95.9	-11.9	-3.2	i	0.97
CNC(=S)N/N=C1\C(=O)c2cccc3cccc1c23	13.2	47.1	93.8	1.2	-1.6	i	0.91
COC(=O)C1(S(=O)(=O)c2cccc3nsnc23)CC1	x	x	94.4	-3.4	-0.2	i	1.03
OC(COCC1COc2ccccc2O1)CN1CCN(c2ccccc2F)CC1 (stereo unspecified)	-34.5	116.1	109.6	10.5	0.0	i	0.96
CCOC(=O)C1=C(C)N(c2ccc(OC)cc2)C(=O)/C1=C\c1ccc(O)c(OCC)c1	x	x	101.4	x	x	i	0.83
CC(C)(C)c1ccc(OCc2nc(-c3ccccn3)no2)c(Br)c1	21.9	68.9	87.5	0.5	1.4	i	0.9
CCOC(=O)CC1(c2ccc(OC)c(OC)c2)C(=O)c2ccccc2C1=O	x	x	101.5	x	x	i	0.95
CCCn1c(C)nc2c(c1=O)c1nc3ccccc3nc1n2CCC1=CCCCC1	-11.1	81.9	95.6	4.1	0.0	i	1
COC(=O)C(NC(=O)c1ccccc1)(Nc1nccs1)C(F)(F)F (stereo unspecified)	x	x	104.5	0.6	-1.3	i	0.88
CC(C)NC(=O)CC(=O)N/N=C/c1cccs1	18.8	121.0	97.7	-1.7	x	i	0.94
CNc1nc(N)c([N+](=O)[O-])c(NCC2CCCO2)n1 (stereo unspecified)	x	x	88.1	x	x	i	0.99
c1cnc(SCCOc2cccc3ccccc23)nc1	3.3	48.0	101.0	-3.8	-0.5	i	1.12
O=C(N/N=C/c1coc2ccccc2c1=O)c1cc(O)cc(O)c1	7.1	101.3	94.5	1.0	x	i	0.91
O=c1cc(-c2ccc(O)cc2)oc2c(O)c(O)c(O)c(O)c12	x	x	98.7	x	x	i	0.87
CC(C)CC(=O)N/C(N)=N/c1nc2ccccc2o1	x	x	99.9	x	x	i	1.08
O=C(CSc1nnc2sc3ccccc3n12)NCc1ccc2c(c1)OCO2	x	x	89.1	x	x	i	0.78
O=C1Nc2ccc(Br)cc2C1(O)Cc1ccncc1 (stereo unspecified)	57.1	71.4	98.4	-5.4	-2.6	i	1
COc1ccc(CN(C)C2CCCCC2)c(C)c1C	12.9	73.3	111.0	-4.3	-3.0	i	1.04
Cc1cc(C(=O)Nc2sc3c(c2C#N)CCC3)no1	37.1	117.3	102.8	1.6	-1.1	i	0.98
COc1ccc(Nc2nccc(N(C)C)c2C#N)cc1	x	x	98.2	2.7	x	i	0.77
CC(C)(C)NC(=O)c1ccc2nccnc2c1	9.1	134.3	97.7	-2.9	-0.5	i	0.71
Cc1ccc(C)c(NC(=O)COC(=O)CCCN=C2NS(=O)(=O)c3ccccc32)c1	23.1	106.2	79.6	0.1	-0.8	x	x
O=C(c1cccc(Oc2c(Cl)cccc2[N+](=O)[O-])c1)N1CCCCC1	x	x	99.6	-6.8	x	i	0.87
Cc1onc(-c2ccccc2)c1-c1ccc(S(N)(=O)=O)cc1	x	x	98.7	x	x	i	0.81
COc1ccc(C(=O)NC(=S)N2CCN(C)CC2)cc1Br	0.0	124.2	98.0	10.1	x	i	0.88
O=C(O)CCn1c(CO)nc2ccccc21	0.0	50.5	164.5	1.3	x	i	1
O=C(NC(=S)Nc1ccc(S(=O)(=O)N2CCCCC2)cc1)c1ccc(Cl)cc1	1.4	79.2	95.5	-3.9	-4.0	i	0.84
COCC(C)n1c(C)cc(C(=O)CN2C(=O)NC(Cc3c[nH]c4ccccc34)C2=O)c1C (stereo unspecified)	-7.7	101.9	105.3	0.0	-0.1	i	0.977
COc1ccc(Cl)cc1Nc1nc(-c2sc(NC(=O)c3ccccc3)nc2C)cs1	40.5	100.0	105.3	-12.4	-1.5	i	1.17
CC(=O)Nc1ccc(-c2csc(Nc3ccc(S(N)(=O)=O)cc3)n2)cc1	x	x	91.4	-8.6	x	i	0.84
COc1ccc(NC(=O)NNC(=O)CCC(=O)Nc2ccccc2Cl)cc1	x	x	101.5	2.8	x	i	0.95
CCN(CC)c1nc(OCCNC(=O)Nc2ccccc2)nc(N(CC)CC)n1	71.4*	17.1*	97.7	0.1	-1.3	i	0.8
COc1cc(/C=N/c2oc(-c3ccccc3)cc2C#N)ccc1O	-8.3	55.9	99.1	-5.3	-0.4	i	0.77
CN(c1ccccc1)c1nc(N)c([N+](=O)[O-])c(NCCO)n1	x	x	96.3	x	x	i	0.94
COc1cc(/C=C/C(=O)O)ccc1S(=O)(=O)N1CCCc2ccccc21	-172.7	70.1	88.1	-8.2	x	i	0.9

By substructure: those above with a thiophene ring, fused or not (3)
SMILES	Insulin prom inh	Insulin prom inh cell count	RGS16-Gao HTS	PKD1 inh	GALR2 ag	HSV replic up	HSV replic up primary fold
CC(C)CNc1nnnc2c1sc1nc(N3CCOCC3)c3c(c12)CCCC3	x	x	99.0	x	x	i	0.84
CC(C)NC(=O)CC(=O)N/N=C/c1cccs1	18.8	121.0	97.7	-1.7	x	i	0.94
Cc1cc(C(=O)Nc2sc3c(c2C#N)CCC3)no1	37.1	117.3	102.8	1.6	-1.1	i	0.98

Next structures follow.
SMILES	Insulin prom inh	Insulin prom inh cell count	RGS16-Gao HTS	PKD1 inh	GALR2 ag	HSV replic up	HSV replic up primary fold
CCC1(CC)NC(=O)N(CC(=O)OCn2nnc3ccccc3c2=O)C1=O	x	x	104.9	-14.8	-1.1	i	0.81
FC(F)(F)c1cccc(Nc2ncnc3ccccc23)c1	15.2	106.2	107.2	-3.6	-0.5	i	0.81
CCCCCCNCCn1cnc2c(N)ncnc21	8.3	177.9	93.8	6.2	-1.2	i	0.88
Cc1ccccc1NC1=CC(=O)CC(C)(C)C1	-14.3	151.7	104.2	-6.2	-2.5	i	1.16
CCCCCC(=O)N1CCN(c2ccc(C(C)=O)cc2F)CC1	0.0	137.0	101.6	-6.4	-0.4	i	0.98
COCCNc1oc(-c2ccc(Cl)cc2)nc1C#N	x	x	104.0	3.3	0.4	x	x
CCOc1ccc2nc(NC(=O)CSc3nc4ccccc4c(=O)n3Cc3ccco3)sc2c1	x	x	109.2	1.6	-0.8	i	0.95
CCOC(=O)c1ccc(S(=O)(=O)N2CCN(C(=O)CSc3nc4ccccc4o3)CC2)cc1	x	x	101.9	-0.9	1.2	i	1.11
O=S(=O)(Nc1ccc(N=Nc2ccc(O)c3ccccc23)cc1)c1ccccc1	-47.4	170.9	88.1	-0.8	-1.4	i	1.21
CC1=C(C(N)=O)C(c2cccs2)n2ncnc2N1 (stereo unspecified)	x	x	86.3	x	x	i	1.01
Cc1ccc(-c2ccc(C(=O)Nc3cccc(F)c3)o2)c2ccccc12	-4.5	50.5	60.2	-1.4	-1.2	i	1.08
CC1(C)CC(=O)C(C=NCCN2CCN(C(=O)c3ccccc3)CC2)=C(O)C1	54.5	128.2	105.4	-4.1	0.0	i	1.09
O=C(O)c1ccc(N/N=C/c2ccc(-c3cc(Cl)ccc3Cl)o2)cc1	x	x	84.5	x	x	i	1.03
CCn1c(SCC(=O)Nc2ccccc2)nnc1-c1ccc(S(=O)(=O)N2CCOCC2)cc1	2.8	72.4	105.8	1.1	-1.2	i	1.11
CCc1ccc(OCC(=O)Nc2cccc3c2CCCC3)cc1	56.7	113.8	97.3	3.6	-1.3	i	0.84
O=c1[nH]c(CN2CCN(S(=O)(=O)c3ccc4c(c3)OCCO4)CC2)nc2sc3c(c12)CCCC3	x	x	100.6	-1.3	-0.1	i	0.99
O=C(NCCc1c[nH]c2ccccc12)c1cnc2n(c1=O)CCS2	10.0	114.5	102.0	-10.5	-2.3	i	0.79
Cc1cc(C(=O)OCCN2C(=O)c3ccccc3C2=O)c2ccccc2n1	7.0	144.8	103.9	10.6	-2.6	i	1.09
Cn1nc(-c2ccccc2)cc1NC(=O)CCCC(=O)O	x	x	101.0	x	x	i	1.23
Cc1cc(C(=O)N2CCN(c3ccccn3)CC2)no1	x	x	99.7	-2.8	-2.7	i	1.11

Arranged by number of heavy atoms (ascending): part of the list above.
SMILES	Insulin prom inh	Insulin prom inh cell count	RGS16-Gao HTS	PKD1 inh	GALR2 ag	HSV replic up	HSV replic up primary fold
CCCCCCNCCn1cnc2c(N)ncnc21	8.3	177.9	93.8	6.2	-1.2	i	0.88
Cc1cc(C(=O)N2CCN(c3ccccn3)CC2)no1	x	x	99.7	-2.8	-2.7	i	1.11
O=c1[nH]c(CN2CCN(S(=O)(=O)c3ccc4c(c3)OCCO4)CC2)nc2sc3c(c12)CCCC3	x	x	100.6	-1.3	-0.1	i	0.99

(further entries)
SMILES	Insulin prom inh	Insulin prom inh cell count	RGS16-Gao HTS	PKD1 inh	GALR2 ag	HSV replic up	HSV replic up primary fold
CCOc1ccc(C(=O)Nc2ccccc2N2CCCC2)cc1	2.6	144.8	115.3	-12.3	-0.7	i	0.83
COc1ccc(-c2[nH]ncc2CN2CCC(C(=O)N3CCOCC3)CC2)c(F)c1	x	x	107.2	-0.7	x	i	0.96
COc1cccc(C(=O)NCC2CCN(c3ccc(S(=O)(=O)N4CCOCC4)cc3)CC2)c1	x	x	155.5	0.9	-0.7	i	0.993
O=S(=O)(c1ccc(N2CCN(c3ccc(F)cc3)CC2)cc1)N1CCCC1	x	x	100.3	-3.3	0.2	i	0.94
CCc1c(OC(C)=O)c2ccccc2n(C)c1=O	26.3	47.9	107.6	-0.9	-2.1	i	1.06

Compound activity (PubChem BioAssay)
